Screening data: PubChem, National Center for Advancing Translational Sciences (NCATS)
gsp agonist – gsp mutant agonism. gsp mutant cells, cAMP HTRF, 30 min; control for the full effect not named in the record. Potency, µM (titrated, usually from 76.9 µM), for inactives: at the highest dose activation (cAMP increase), most hits filed as activators. 0.13% of 340,000 active. AID 624287; active = well fitted activation curve with a large enough effect; inconclusive = small, poorly fitted or top-dose-only effect, or another doubt; inactive = no such curve, though single readings can be large or run the other way; cell line not stated here;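 also: phosphodiesterase inhibitor Ro 20-1724 added with compounds to block cAMP breakdown; potency is read from the fitted curve at half-maximal effect; nearly all actives have a fitted effect of over 60% in size; about a fifth of the inactives were tested at one dose only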
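Cells in DMEM/10% FBS with G418 were pretreated with compounds in DMSO plus […] (300 uM stock) for 30 min at 37C. cAMP was measured by HTRF (cAMP-d2 plus anti-cAMP antibody-K) after 30 min at room temperature.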
Sfp PPTase inh – Sfp phosphopantetheinyl transferase inhibition; Q9F4F7; Biochemical Sfp PPTase activity, qHTS; Potency, µM, for the others: max response, negative = inhibition, actives largely listed as inhibitors; 3.5% of 310,000 active; AID 1490; active = well fitted inhibition curve with a large enough effect; inconclusive = small, poorly fitted or top-dose-only effect, or another doubt; inactive = no such curve, though single readings can be large or run the other way;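 also: the enzyme is Sfp with the accession as filed and its product quenches rhodamine fluorescence; potency is read from the fitted curve at half-maximal effect; 0% = enzyme reaction without inhibitor and -100% = no enzyme wells; top concentration of the series not given in the record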
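Sfp 15 nM + cpd, 15 min RT; start w/ rhodamine-CoA 5 uM, BHQ-2-YbbR 12.5 uM (final); 50 mM Hepes pH 7.6, 10 mM MgCl2, 0.01% NP-40, 0.01% BSA; read 525/598 nm at 0 and 30 min.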
gsp antagonist – gsp mutant antagonism; gsp-mutant cells, cAMP HTRF, 30 min; control for the full effect not named in the record; Potency, µM (series often up to 76.9 µM), for the others: at the highest dose activity change, negative = inhibition, actives largely listed as inhibitors; 0.4% of 340,000 active; active = falling curve of any shape with a large fitted effect; inconclusive = falling curve, mostly with a smaller effect; inactive = flat or rising curve; cell line not stated here;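 also: intracellular cAMP measured with PDE inhibitor Ro 20-1724 present during compound exposure; potency is read from the fitted curve at half-maximal effect; % is scaled to controls: 0 for no effect and ±100 for the full control effect; nearly all actives have a fitted effect of over 65% in size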
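G418-selected cells were plated in DMEM/10% FBS for 16-24 h at 37C, then treated with compounds plus the PDE inhibitor […] (300 uM solution added) for 30 min at 37C. Intracellular cAMP was measured by HTRF after 30 min lysis at room temperature.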
Menin-MLL FL inh – menin-MLL binding inhibition, fluorescein peptide. FP activity change, % at 61.4 µM. Fluorescence polarization, fluorescein-MLL peptide displacement from menin. AID 1766. 290,000 tested, under 10 active; inconclusive = falling polarisation curve, or a change in total fluorescence; inactive = total fluorescence flat and polarisation flat or rising; no compound was filed as active; the % refers to the polarisation; negative = inhibition;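 also: % of control where 0% means no effect; inhibitors lower the polarisation; unlabelled MLL peptide was the positive control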
TRPV1 potentiator – potentiators of human vanilloid receptor 1 (TRPV1); potentiation, % at 8.33 µM; TRPV1-expressing cells, Fluo-8 calcium influx, capsaicin EC20 potentiation; host cell line not named in the record; control for the full effect not named in the record; Q8NER1; 0.02% of 320,000 active; active means potentiation above 80%; inconclusive means 30% to 80%; inactive means below 30%; also: 0% is about no effect
Target sequence (Q8NER1 whole entry, looked up): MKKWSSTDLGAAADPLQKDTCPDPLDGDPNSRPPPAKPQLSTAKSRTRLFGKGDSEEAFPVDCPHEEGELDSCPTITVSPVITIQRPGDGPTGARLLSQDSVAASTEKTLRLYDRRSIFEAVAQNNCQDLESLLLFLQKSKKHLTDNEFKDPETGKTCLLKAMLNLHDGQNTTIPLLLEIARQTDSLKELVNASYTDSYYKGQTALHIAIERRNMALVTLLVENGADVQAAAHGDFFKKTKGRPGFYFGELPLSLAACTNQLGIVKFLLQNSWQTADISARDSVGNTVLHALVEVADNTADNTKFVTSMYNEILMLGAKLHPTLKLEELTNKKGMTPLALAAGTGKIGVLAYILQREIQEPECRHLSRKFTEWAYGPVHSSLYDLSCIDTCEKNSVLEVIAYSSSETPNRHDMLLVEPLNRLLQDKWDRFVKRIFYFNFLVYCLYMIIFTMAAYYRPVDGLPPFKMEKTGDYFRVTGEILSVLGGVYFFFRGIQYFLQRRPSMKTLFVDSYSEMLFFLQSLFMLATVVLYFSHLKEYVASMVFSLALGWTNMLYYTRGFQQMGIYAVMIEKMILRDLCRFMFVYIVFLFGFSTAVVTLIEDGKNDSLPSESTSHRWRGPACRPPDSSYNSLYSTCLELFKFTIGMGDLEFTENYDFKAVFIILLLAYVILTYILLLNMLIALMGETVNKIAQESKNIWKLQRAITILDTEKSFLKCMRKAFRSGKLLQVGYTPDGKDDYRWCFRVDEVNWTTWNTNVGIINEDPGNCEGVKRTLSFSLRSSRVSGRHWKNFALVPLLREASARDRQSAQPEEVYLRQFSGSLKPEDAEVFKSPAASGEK
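Fluo-8 calcium influx in TRPV1-expressing cells, kinetic read (ex 480/em 520 nm). Compound added and read 3 min for agonist activity, followed by capsaicin at EC20 final and 2 min further read for enhancement.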
ClpP mod – qHTS Assay for Activators of ClpP | ATP-dependent Clp protease proteolytic subunit (Bacillus subtilis (strain 168)), P80244 | purified B. subtilis ClpP, FRET peptide cleavage, 20 min | Potency, µM (top dose mostly 57.5 µM), for inactives: at the highest dose activity change, negative = active | 1.9% of 340,000 active | AID 651965, 2013; active = well fitted falling curve with a large enough effect; inconclusive = small, poorly fitted or top-dose-only effect; inactive = no such curve, though single readings can be large or run the other way; also: potency is read from the fitted curve at half-maximal effect; the source files actives as falling curves though it sought activators and does not explain the sign; nearly all actives have a fitted effect of over 65% in size; many hits overshoot -100%
Target sequence (P80244 whole entry, looked up): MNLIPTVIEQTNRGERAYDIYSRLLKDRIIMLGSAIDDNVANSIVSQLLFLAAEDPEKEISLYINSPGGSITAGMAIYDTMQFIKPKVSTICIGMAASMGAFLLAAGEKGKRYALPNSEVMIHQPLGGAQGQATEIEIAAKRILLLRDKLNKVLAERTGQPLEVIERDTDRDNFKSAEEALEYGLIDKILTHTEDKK
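FRET quenching reversal measured ClpP activation: 10 microg/mL B. subtilis ClpP at pH 8 with the FRET-FV decapeptide, read at 430 nm after 320 nm excitation. The 20-min minus 0-min signal was scaled between DMSO/no-enzyme wells and ADEP (5.8 microM final).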
CtBP-E1A blk – inhibitors of CtBP/E1A interaction. AlphaScreen GST-E1A/His-CtBP binding, 1536-well; hits give low values; control for the full effect not named in the record. activity change, % (no concentration beside the values). 0.49% of 340,000 active. AID 651724; in the data active means activity change below about -65%; inconclusive means about -30% to -65%; inactive means above about -30%; also: % is scaled to controls: 0 for no effect and ±100 for the full control effect; compound concentration not given in the record
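AlphaScreen with 125 nM GST-E1A and 125 nM His-CtBP (5X stocks) in Tris pH 8.0, 300 mM NaCl, BSA, Tween 20, TCEP. Compounds preincubated 2 h at 37 deg C, then glutathione donor/nickel acceptor beads added for 1 h at 37 deg C in dark.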
An asterisk follows results filed as active; u = inconclusive; x = not tested or not shown; & = joins results of further samples; [ ] = dose if it differs, or a comment.

SMILES | gsp agonist | Sfp PPTase inh | gsp antagonist | Menin-MLL FL inh | TRPV1 potentiator | ClpP mod | CtBP-E1A blk
COCCCN1C(=O)c2ccc(C(=O)OCC(=O)NCc3cccc(OC)c3)cc2C1=O | 2% | x | -4% | x | -7 | 0.7% | -1
N#CC12CCCCC1CC1CCCCC1(C#N)N2Cc1ccccn1 (stereo not given) | -18% | -4% | 3%[15.4 µM] | -2.2 | -9 | -1.3% | -9
CN1CCN(CCCNC(=O)c2ccc3c(=O)n(CCc4ccccc4)c(=O)[nH]c3c2)CC1 | -35%[15.4 µM] | -2% | 11% | -2.1 | 5 | x | 0
COc1cc(NC(=O)c2ccccc2OCc2ccccc2)cc(OC)c1OC | -1% | -20% | -5% | 7.1 | -18 | -5.8% | x
O=C(O)CCc1ccc(-c2cccs2)n1NC(=O)c1ccco1 | 31% | 16% | -3% | 1.0 | 1 | -1.8% | -1
CC(=O)c1ccc(OC2OCCOC2Oc2ccc(C(C)=O)cc2)cc1 (stereo not given) | 5% | 18% | 2% | 2.4 | -10 | -1.4% | 4
COc1cc(OC)cc(C(=O)N[C@@H](CCSC)c2nc3ccccc3[nH]2)c1 | 14% | 10% | 3% | 2.6 | -9 | 1.8% | x
Cc1cccc(C)c1NC(=O)CN(C)C(=O)c1cc(S(=O)(=O)N(C)C)ccc1N1CCCC1 | 8% | x | 6% | x | -2 | -23% | -9
O=C(CN1C(=O)NC2(CCc3ccccc32)C1=O)NCC(F)(F)F (stereo not given) | -13% | 3% | 3% | -0.6 | 5 | x | 4
CCOC(=O)c1[nH]ncc1CN1CCCC(C(=O)c2cccc(OC(C)C)c2)C1 (stereo not given) | 8% | 1% | 8% | 0.8 | 2 | x | 4
COC(=O)c1c(C#N)c(N)nc2c1CCC2 | u | 23% | 5% | 0.9 | 11 | u | 4
COc1ccc(NC(=O)CSc2nc3[nH]ncc3c(=O)n2-c2ccccc2C)cc1OC | 13% | 6% | 27% | 2.9 | 9 | -8.6% | -5
CCOC(=O)C1=C(O)C(=O)N(c2ccc(S(N)(=O)=O)cc2)C1c1ccc(OC)cc1OC (stereo not given) | -17% | 11% | 4% | 2.4 | -4 | -3.3% | 6
CCN(CC(=O)Nc1c(F)cccc1F)C(=O)Cc1cccs1 | 8%[15.4 µM] | x | 2% | x | x | x | 3
O=C(N/N=C/c1c[nH]c2ccccc12)c1ccncc1 | -16%[15.4 µM] | -24% | -33% | 8.3 | 28 | 1.2% | 0
Cc1nn2c(=O)cc(CSc3ccccc3NC(=O)c3ccccc3F)nc2s1 | -15% | 1% | -8% | -2.2 | 6 | -0.5% | 1
Cc1ccc(S(=O)(=O)N/N=C/c2ccc(OC3CSC3)cc2)cc1 | -3% | 2% | -16% | 3.3 | 11 | -0.2% | -1
Cc1cccc(OCC(=O)NNc2c3ccccc3nc3ccccc23)c1 | -5% | -16% | 22µM* | 4.5 | -2 | 9.0% | -22
O=S(=O)(NCC(O)c1ccccc1)c1cc(Cl)sc1Cl (stereo not given) | u | 14% | -4% | x | 10 | -0.4% | -10
CCOC(=O)c1ccccc1NC1c2ccccc2C(=O)N1C1CCN(C(=O)OCC)CC1 (stereo not given) | -13% | -7% | u | -1.7 | 22 | 4.3% | 0
Nc1nc(Sc2ccc([N+](=O)[O-])cc2[N+](=O)[O-])n[nH]1 | 14% | -14% | -3% | 0.2 | 8 | -0.2% | -2
CCc1cccc(NC(=O)COC(=O)c2cc([N+](=O)[O-])ccc2N2CCOCC2)c1 | -25% | x | 7% | x | 7 | 1.1% | -1
COc1ccc(OC)c(C2=NOC(C(=O)Nc3cccnc3)C2)c1 (stereo not given) | 13% | 17% | -3% | -5.3 | 1 | -21% | 0
O=C1c2ccccc2C(=O)N1CCc1c(-c2ccccc2)[nH]c2ccccc12 | x | x | u | x | x | -1.9% | -19
CN(C(=O)CSc1nc2c(cnn2-c2ccccc2)c(=O)[nH]1)C1CCS(=O)(=O)C1 (stereo not given) | x | 19% | x | 2.3 | 13 | x | x
SMILES | gsp agonist | Sfp PPTase inh | gsp antagonist | Menin-MLL FL inh | TRPV1 potentiator | ClpP mod | CtBP-E1A blk
Cc1ccc(S(=O)(=O)N(C)C[C@H]2OCCCC[C@@H](C)Oc3ccc(N(C)C)cc3C(=O)N([C@H](C)CO)C[C@@H]2C)cc1 | -29% | x | x | x | x | -1.5% | -5
Fc1ccccc1C1CC(c2ccco2)=Nc2ccccc2S1 (stereo not given) | 5% | 3.5µM* | -6% | u | 8 | -1.1% | 0
CCC(C)N(C(=O)COC(=O)c1cc([N+](=O)[O-])ccc1N1CCOCC1)C1CCS(=O)(=O)C1 (stereo not given) | 1% | x | 5% | x | u | -3.6% | -1
CN(Cc1ccccc1)S(=O)(=O)c1ccc(NC(=S)NC(=O)C(C)(C)C)cc1 | -48% | 4% | -4% | -4.1 | -22 | 708% | 18
C[C@H](CO)N1C[C@H](C)[C@@H](CN(C)Cc2ccc(C(=O)O)cc2)Oc2c(NC(=O)C3CC3)cccc2C1=O | x | x | 2% | x | x | 0.6% | 1
O=C(COc1ccc2c3c(c(=O)oc2c1)CCCC3)NCCN1CCOCC1 | 2% | 14% | 5% | x | 24 | x | -10
Cc1ccc(-n2cc(-c3ccccc3)c3c(=O)[nH]cnc32)cc1 | -5% | -10% | -27% | 0.5 | -6 | 4.8% | 29
Oc1c(C=Nc2ccccc2)sc(=S)n1Cc1ccccc1 | -1%[15.4 µM] | 24% | -7% | u | 1 | x | 5
O=S(=O)(c1c(F)cccc1F)N1CCN(Cc2c(O)ccc3ccccc23)CC1 | -11% | x | 7% | x | -4 | 7.8% | -17
COc1ccc(S(=O)(=O)N2CCN(Cc3ccc4c(c3)OCO4)CC2)c2ccccc12 | -54%[inhibitor] | -13% | -6% | 4.1 | 10 | -3.1% | 1
COCCNC(=S)Nc1cc(OC)c(NC(=O)c2ccco2)cc1OC | 15% | -11% | -5% | -3.0 | 9 | x | -4
CCCCNC(=O)c1cccc(S(=O)(=O)N2CC3(C)CC2CC(C)(C)C3)c1 (stereo not given) | 11% | x | -17% | x | -16 | 0.5% | 3
N#Cc1ccc(C(=O)NC23CC4CC(CC(C4)C2)C3)cc1 | -5%[15.4 µM] | 6% | -1% | 4.5 | -36 | 0.5% | 12
Nc1nnnn1/N=C/c1cccc(Br)c1 | -26% | 3% | 2% | -2.4 | -8 | 0.1% | x
O=S(=O)(Nc1cccc2nsnc12)c1ccccc1 | 11% | -3% | -19% | u | -2 | -2.5% | -7
COc1ccc(-c2sc3ccc(OC)cc3c2C#Cc2cncn2C)cc1 | x | x | -14% | x | x | 4.9% | -3
Cn1c(C(=O)NCc2ccccn2)cc2c(=O)n(C)c3ccccc3c21 | 1% | -3% | 0% | 1.9 | 3 | 4.1% | -10
COCCNc1nc(C)cc(-c2cc(-c3ccc(Cl)cc3)on2)n1 | 5% | -7% | -8% | 1.6 | 19 | 4.2% | x
O=C(CCl)N1N=C(c2ccco2)CC1c1ccco1 (stereo not given) | -22% | -37% | -13% | 8.8 | 29 | x | -9
COc1ccc2c(-c3cc4ccc(OCc5ccc(F)cc5)cc4oc3=O)cc(=O)oc2c1 | -14% | 3% | 7% | 5.1 | -4 | 0.9% | 7
COC(=O)c1nnn(-c2nc(N(C)C)nc(N(C)C)n2)c1C | u | 10% | 3% | -3.3 | u | x | -1
CC(C)N1CCNCC1 | -27% | 5% | 9% | -0.6 | -7 | -0.5% | x
CC(C)NC(=O)NC(=O)CSc1nnc(-c2c[nH]c3ccccc23)o1 | -9% | -2% | -10% | x | -18 | -5.8% | -13
O=C(Cc1ccccc1)NCc1ccc(F)cc1 | -5% | -7% | 9% | 4.2 | -4 | 3.5% | 4
O=C(c1ccc(C(F)(F)F)cc1)C1CCCN(C(=O)c2cnccn2)C1 (stereo not given) | -14%[15.4 µM] | 13% | 2% | 2.2 | 12 | x | 4
SMILES | gsp agonist | Sfp PPTase inh | gsp antagonist | Menin-MLL FL inh | TRPV1 potentiator | ClpP mod | CtBP-E1A blk
CCCCCCCn1ccc(=N)cc1 | 25% | 10% | -7%[15.4 µM] | 1.9 | 1 | -0.5% | 6
CCC(C)(C)n1nnnc1C(c1cc2cccc(C)c2[nH]c1=O)N1CCN(C(=O)c2ccco2)CC1 (stereo not given) | 14% | 79µM* | -13% | 1.7 | -22 | -20% | 2
CC1(C)CC(=O)C(C=NCC2CCN(C(=S)Nc3ccccc3)CC2)=C(O)C1 | -1%[15.4 µM] | 18% | 4% | -2.6 | 0 | x | 14
Cc1cc(Br)ccc1NC(=O)CN(C)C(=O)C1CCN(C(=O)c2ccc(Cl)cc2)CC1 | 7% | x | -9% | x | x | 1.2% | -20
CCOc1ccc(S(=O)(=O)N(C(=O)c2ccco2)c2cc3sc(=O)oc3c3ccccc23)cc1 | 24% | 5.6µM* | -13% | 1.7 | 8 | -3.9% | -17
NNC(=O)c1cc2sccc2s1 | 19% | -12% | -7% | -8.0 | -4 | x | -5
COc1ccccc1NC(=O)C(C)OC(=O)c1cccc(-n2cnnn2)c1 (stereo not given) | 8%[15.4 µM] | x | -11% | x | 3 | x | -6
COc1cc([C@@H]2[C@H]3CN(C)CC=C3C(C#N)=C(N)C2(C#N)C#N)cc2c1OCO2 | 1%[15.4 µM] | 5% | 0%&-4% | u | 10 | -0.9%&-14% | -12&-13
Cc1onc(-c2c(F)cccc2Cl)c1C(=O)O/N=C(\N)c1ccc([N+](=O)[O-])o1 | -8%[15.4 µM] | 11% | 10% | 0.8 | 2 | x | -16

Sorted by the number under gsp agonist (lowest first): three of the compounds above.
structure | gsp agonist
Cc1cc(Br)ccc1NC(=O)CN(C)C(=O)C1CCN(C(=O)c2ccc(Cl)cc2)CC1 | 7%
CCC(C)(C)n1nnnc1C(c1cc2cccc(C)c2[nH]c1=O)N1CCN(C(=O)c2ccco2)CC1 (stereo not given) | 14%
CCCCCCCn1ccc(=N)cc1 | 25%
